Assay outcomes from PubChem BioAssay.
BasE inh: BasE siderophore biosynthesis inhibition; purified BasE, fluorescence polarization binding displacement; inhibition, % (test concentration not listed); 84,000 tested, 0.1% active; AID 485350;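 active means both replicates above 25% with normal brightness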;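 further: 0% = negative plate control signal and 100% = positive plate control signal; stock transfer was 100 nL into about 30 µL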
KSHV LANA nucl: LANA-nucleosome interaction inhibition; z-score (no concentration beside the values); AID 720717; FITC-LANA1-23 / chicken nucleosome fluorescence polarization; stronger effect = lower value; 51,000 tested, 0.3% active;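 active means both repeat wells score below -2 in polarization z-score versus plate sample wells, excluding overly bright wells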;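 further: 100 nL library stock added to about 30 µL; numbers are from one replicate; some results filed as inactive read as strong as hits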
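Assay system: purified chicken nucleosomes with FITC-labelled LANA N-terminal peptide (1-23) / Probe or stimulus: 50 nM FITC-LANA1-23 probe / Compound dosing: pin-transferred compound, 100 nL / Times: compound with peptide–nucleosome mix 10–45 min at room temperature / Technique: fluorescence polarization, 480 nm excitation, 535 nm parallel and perpendicular emission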
* hit, by the source's call; / = not tested or not shown; & = joins results of further samples. The list is partial, so the mix of outcomes need not match the whole.

The opening 3 entries, to show the layout:
SMILES	BasE inh	KSHV LANA nucl
CCOC(=O)CC1=C(C(=O)OCC)C2(C(=O)N(CC(=O)OC)c3ccccc32)C(C(=O)OCC)=C(N)O1 (stereo unspecified)	2.6	-0.773
NC(=O)C1CCN(C(=O)N2c3ccccc3Sc3ccccc32)CC1	-0.2	/
CSc1nsc(SCc2ccc(F)cc2)n1	0.6	-0.736

The list itself (from the top)
SMILES	BasE inh	KSHV LANA nucl
CCOC(=O)CC1=C(C(=O)OCC)C2(C(=O)N(CC(=O)OC)c3ccccc32)C(C(=O)OCC)=C(N)O1 (stereo unspecified)	2.6	-0.773
NC(=O)C1CCN(C(=O)N2c3ccccc3Sc3ccccc32)CC1	-0.2	/
CSc1nsc(SCc2ccc(F)cc2)n1	0.6	-0.736
Cc1nc(S(=O)(=O)NCc2ccc(-c3cccs3)cc2)cn1C	1.2	0.186
COc1cccc(NC(=O)CSc2nnc(N)s2)c1	0.6	/
COC(CNC(=O)c1ccc(-c2cc(Cl)ccc2Cl)o1)OC	-0.1	/
N#CCCn1cc(CNCCOc2ccccc2)c2ccccc21	-4.0	/
c1cc(-c2nnc(C34CC5CC(CC(C5)C3)C4)o2)ccn1	1.3	/
O=S(=O)(Cc1ccccc1Cl)N1CCOCC1	0.1	0.687
O=C(O)C1(O)c2ccccc2NC(=S)N1Cc1ccccc1 (stereo unspecified)	3.5	/
CCCc1nc2ccccc2n1CC(=O)Nc1sc(C(=O)N(C)C)c(C)c1C(=O)OCC	-2.4	/
CCOC(=O)C1=C(C)NC(=S)N(C=O)C1c1ccccc1 (stereo unspecified)	0.9	-0.127
COc1cccc(CNC(=O)Cn2ncn3c(C)c(C(=O)NC4CCCCC4)c(C)c3c2=O)c1	-1.2	-0.643
Cn1c(N)c(C(=S)NC(=O)C2CC2)c(=O)n(C)c1=O	-2.6	/
O=C1Nc2ccc(S(=O)(=O)N(CCO)CCO)c3cccc1c23	1.0	/
CCOC(=O)c1c(NC(=O)COCc2cc(-c3ccc(F)cc3)on2)sc(C)c1C	0.4	1.17
COC(=O)c1ccc(CSc2nc3ccccc3c(=O)n2N)cc1	2.1	/
O=C(CCCn1c(=O)c2sccc2n(CC(=O)NCc2ccco2)c1=O)NCc1ccco1	0.7	-1.72
Cc1cccc(NC(=O)Nc2cccc(C(F)(F)F)c2)n1	2.9	-0.0805
CCCCN(CC)c1ncnc2c1sc1nc(N3CCOCC3)c3c(c12)CC(C)(C)OC3	1.7	/
Cn1ncc2c1ncn1nc(-c3ccncc3)nc21	-0.1	-1.26
O=S(=O)(NNc1ccnc2cc(Cl)ccc12)c1ccccc1F	1.4	/
O=C(O)CNC1=NCCCCC1	3.1	/
O=C(CCc1nc2cccnc2n1Cc1cccs1)N1CCC2(CC1)OCCO2	-0.1	0.127
O=C(c1ccc(N2CCCc3ccccc32)s1)n1ccnc1	1.3	0.722
O=C(COC(=O)c1ccc(N2C(=O)c3ccccc3C2=O)cc1)Nc1ccc2[nH]c(=O)[nH]c2c1	0.4	/
c1ccc(CSC2=NCCCN2C2CCCCC2)cc1	1.3	/
O=C(Cc1cn2ccsc2n1)Nc1ccccc1OC(F)F	-0.3	/
CC1CCN(C(=S)SCC(=O)n2c3c(c4ccccc42)CCCC3)CC1	1.0	/
CC(=O)Nc1ccc2c(c1)CCCN2C(=O)c1cccs1	0.6	-1.52
CCS(=O)c1ccccc1C(=O)NCc1ccc(C)cc1 (stereo unspecified)	1.8	/
Cc1cccc(C)c1NC(=O)CCCSc1nnc(-c2ccccc2)o1	3.3	/
Fc1ccccc1Nc1nn(CN2CCCC2)c(=S)s1	0.3	/
O=C(/C=C1\Sc2ccccc2NC1=O)NCCN1CCN(c2ccccc2)CC1	-1.4	-0.173
CCOC(=O)c1cc(S(=O)(=O)NC2CCCc3ccccc32)cn1C (stereo unspecified)	-1.1	-0.277
S=c1[nH]nc(Nc2ccccc2)s1	-0.5	/
COC(=O)CC1(c2ccc(Cl)cc2)C(=O)c2ccccc2C1=O	2.4	/
CCN1CCN(C(C)C(=O)NC(c2ccccc2)c2ccccc2)CC1 (stereo unspecified)	-0.1	0.669
N#Cc1cc2c(nc1SCC(=O)Nc1ccc(S(=O)(=O)Nc3ncccn3)cc1)CCC2	8.2	-1.02
CN(C)C(CNC(=O)c1cc2ccccc2o1)c1ccco1 (stereo unspecified)	-0.8	/
Cc1nn(-c2ccccc2)c2sc(C(=O)NC(=S)NCc3ccco3)cc12	-2.1	0.494
CCN(c1ccc(NC(=O)CN(C)Cc2ccccc2)cc1)C(C)C	0.3	/
Cc1noc(C)c1COC(=O)[C@@H](NC(=O)Cc1cccc2ccccc12)C(C)C	0.4	/
Cc1ccccc1C(=O)N1CCC(C(=O)N2C(=O)c3cccc(N)c3C2=O)CC1	-0.2	/
O=C(c1ccc2c(=O)n3c(nc2c1)CCC3)N(Cc1ccco1)Cc1cccs1	-3.5	/
CCOC(=O)C1(Cc2ccc(O)cc2)NC(c2ccco2)C2C(=O)N(c3ccccc3F)C(=O)C21 (stereo unspecified)	1.8	-0.306
Cc1nc(-c2ccc(F)cc2)c(CC(=O)N(Cc2ccco2)Cc2cccs2)s1	-2.7	/
O=C1C2C(C(=O)N1/N=C/c1ccc(N3CCCCC3)o1)C1C=CC2C12CC2 (stereo unspecified)	2.2	-0.234
CCN(CC)c1nc(N)c2c(N)nc3c(c2c1C#N)C(=O)CN3Cc1ccccc1	0.2	/
Cn1cnc2cc(NC(=O)C3CCCCC3)ccc21	-2.8	-0.925
Other structures follow.
SMILES	BasE inh	KSHV LANA nucl
CC(OC(=O)c1ccc(S(=O)(=O)N2CCCc3ccccc32)cc1)C(=O)NCc1ccco1 (stereo unspecified)	1.0	/
CC(C)Cn1cc(C(=O)N2CCN(c3ccccc3F)CC2)c2c3ccccc3n(C)c2c1=O	0.2	-1.09
O=C(CCN1N=C(c2ccccc2)CCC1=O)NCc1ccccc1Cl	-1.4	1.52
CN(Cc1ccccc1)C(=O)Cn1ncc2c3ccccc3n(C)c2c1=O	-0.5	-0.149
CC1(C)CC2=NN(c3ccccc3)P(=O)(Nc3ccccc3)C2=C(N2CCOCC2)C1 (stereo unspecified)	2.0	/
CCC(=O)NCCc1csc2nc(-c3ccc(Cl)cc3)nn12	2.0	0.373
COc1ccc(CN2CCc3cc(OC)c(OC)cc3C2)cc1O	-3.3	-0.281
N#Cc1cnn(-c2nc(-c3ccc(Br)s3)cs2)c1N	-1.2	/
CC1CCCCC1NS(=O)(=O)c1cc(F)ccc1CN1C(=O)c2cccnc2C1=O (stereo unspecified)	0.1	-1.34
COc1ccc(NC(=O)COC(=O)/C=C/c2ccco2)cc1	0.6	/
CCn1c(-c2ccccc2)c(C(=O)CN2CCN(S(=O)(=O)c3cccs3)CC2)c2ccccc21	-2.4	/
Fc1ccc(-c2n[nH]c(=S)n2CCN2CCOCC2)cc1	-0.2	/
Cc1ccc2c(C(=O)CSc3ccccc3)c(C)[nH]c2c1	2.5	/
Cc1ccc(C#N)c(=O)[nH]1	3.2	-0.614
CCCNC(=O)Nc1cn(CC(C)C)c(=O)c2ccccc12	4.5	/
COC(=O)c1ccc(N2CCN(Cc3ccccc3)CC2)c(N)c1	-1.3	-0.225
C1=CC(=C2SCCS2)C=C1	-0.6	-0.136
COC(=O)c1cc(-c2ccc(Cl)cc2)nc2ccccc12	0.6	/
CN1N=C(c2ccc3c(c2)OCCO3)CCC1=O	1.2	/
O=C(CCN1C(=O)c2ccccc2C1=O)Oc1cccc2cccnc12	18.2	/

Exported with two lines to a compound: entries from further up
Every second line gives: BasE inh, KSHV LANA nucl
Cc1ccc2c(C(=O)CSc3ccccc3)c(C)[nH]c2c1
 : 2.5, /
Cc1ccc(C#N)c(=O)[nH]1
 : 3.2, -0.614
CCCNC(=O)Nc1cn(CC(C)C)c(=O)c2ccccc12
 : 4.5, /
COC(=O)c1ccc(N2CCN(Cc3ccccc3)CC2)c(N)c1
 : -1.3, -0.225

(cont.)
SMILES	BasE inh	KSHV LANA nucl
CCCCC[C@H](O)/C=C/C1=C(C/C=C\CCCC(=O)O)C(=O)CC1	-2.9	-0.535
Cc1cc(C)n(CN2CCN(C(=O)c3cccs3)CC2)c(=S)c1C#N	-0.6	/
O=c1[nH]cnc2[nH]ncc12	-3.8	0.51&0.714
COc1ccc(CNC(=O)c2ccc3c(c2)OCCO3)cc1	1.6	-0.176
O=S(=O)(/C=C/c1ccccc1)N1CCN(c2ncnc3sccc23)CC1	-2.4	/
Cc1cc(Br)c2c(c1)/C(=C1/SC(=S)N(N)C1=O)C(=O)N2C	0.6	1.24
CCN(C(=O)CSc1nnc(COc2ccccc2)o1)c1ccccc1	0.6	0.323
CCSc1nnc2n(-c3ccccc3)c(=O)c3c4c(sc3n12)CCCC4	1.0	-0.614
OCC(O)C(O)C(O)c1cnc2ccccc2n1 (stereo unspecified)	1.1	/
Clc1cc2c(c(C[n+]3ccccc3)c1)OCOC2	1.4	/
O=C(CNCCN1CCOCC1)N1CCc2ccccc2C1	0.8	/
CC(=O)Nc1ccc(S(=O)(=O)NCCC(=O)N2CCN(c3cccc(C(F)(F)F)c3)CC2)cc1	0.8	/
CC(C)(CC(=O)O)CC(=O)Nc1ccc(Cl)cc1Cl	-1.3	/
Cc1cccc2cc(CNCc3ccco3)c(=O)[nH]c12	2.3	-0.156
Cc1ccc(NC(=O)c2cc3ccccc3oc2=N)cc1	0.1	/
COc1ccc(N=C2C(=O)Nc3ccccc32)cc1	1.4	-0.785
CC1=C(C(=O)Nc2cccc(C(=O)N3CCN(C4CCCCC4)CC3)c2)SCCO1	-0.4	0.577
COc1ccc(C(=O)/C=C/Sc2nccc(C)n2)cc1	6.0	-0.155
O=C(O)CSCCn1cccn1	2.4	-0.028
Cc1cc(C)c(C)c(S(=O)(=O)N2CCN(CN3C(=O)CCSC3=O)CC2)c1C	0.3	/

Record cards, from the list above. Order of screens: BasE inh, KSHV LANA nucl
CC1=C(C(=O)Nc2cccc(C(=O)N3CCN(C4CCCCC4)CC3)c2)SCCO1 reads -0.4, 0.577
O=C(CNCCN1CCOCC1)N1CCc2ccccc2C1 reads 0.8, /
Cc1cc(C)c(C)c(S(=O)(=O)N2CCN(CN3C(=O)CCSC3=O)CC2)c1C reads 0.3, /
Cc1cccc2cc(CNCc3ccco3)c(=O)[nH]c12 reads 2.3, -0.156
COc1ccc(C(=O)/C=C/Sc2nccc(C)n2)cc1 reads 6.0, -0.155

(listing goes on)
SMILES	BasE inh	KSHV LANA nucl
CCOC(=O)c1cnn(C(=O)c2ccccc2Cl)c1N	-0.3	/
COc1ccc(C(=O)COc2c(F)c(F)cc(F)c2F)c(OC)c1	0.4	/
O=C(CSCc1ccc(F)cc1)Nc1ccc(N2CCOCC2)cc1N1CCOCC1	1.1	/
CCOC(=O)c1[nH]c(Cc2[nH]c(C(=O)OCC)c(C)c2CC(=O)OC)c(CCC(=O)OC)c1C	1.7	-0.217
CCOc1ccc(CN(CCc2ccc3c(c2)OCO3)Cc2cccnc2)cc1	6.1	-0.123
COC(=O)C1(c2ccccc2)NC(c2ccc(O)cc2)C2C(=O)N(c3ccc4c(c3)OCCO4)C(=O)C21 (stereo unspecified)	0.5	-0.598
O=C1c2cccc3cccc(c23)N1CO	0.5	/
CCC(=O)Nc1ccc(NC(=O)c2ccc(-c3ccc(Cl)cc3)o2)cc1	0.2	-0.768
Cc1cc(/C=N/NC(=O)C(C)Oc2ccc(C#N)cc2)c(C)n1-c1nccs1 (stereo unspecified)	1.6	/
O=S(=O)(Nc1ccccc1)c1cccc2cccnc12	-0.2	/
OCCCNc1ncnc2c1c(-c1ccccc1)cn2-c1ccccc1	1.4	-0.324
O=C(NC(OCc1ccccc1)(C(F)(F)F)C(F)(F)F)c1ccccc1	-1.9	/
C=C1CCC(O)C2(C)CCC3C(C)C(=O)OC3C12O (stereo unspecified)	6.2	0.332
Nc1nc2ccccc2o1	-0.7	/
O=C(CSc1nnc(-c2cccs2)n1Cc1ccco1)Nc1ccc2c(c1)OCO2	1.3	0.335
O=c1c2[nH]c3ccccc3c2ncn1CCN1CCN(Cc2ccccc2)CC1	-1.4	-0.266
Cn1c(/C=C/N2CCOCC2)c(C(=O)c2ccc(Br)cc2)c(=O)n(C)c1=O	-1.5	0.406
Fc1cccc(-c2nc(-c3ccccc3)no2)c1	0.3	0.479
Cc1ccc(C)n1-c1ccc(-c2nnco2)cc1	0.3	/
CCC(=O)NC(c1ccco1)c1c(OC(C)=O)ccc2ccccc12 (stereo unspecified)	2.2	/
Cc1cc(C)c2c3c(sc2n1)C1(CCSCC1)C(C#N)=C(N)O3	0.5	0.304
CNC(=S)NCc1ccc(Cl)cc1	-0.7	-0.22
CCSc1nnc2c3ccccc3ncn12	-0.4	/
Fc1nc(N2CCOCC2)c2c(c1Cl)Oc1ccccc1O2	2.1	/
O=C(CC1(O)C(=O)N(CN2CCOCC2)c2ccccc21)c1ccccc1 (stereo unspecified)	-3.5	2.06
CNc1ccc2c(c1)OCCO2	-2.5	-0.6
O=C1OC(c2ccccc2)=N/C1=C\N1CCCCC1	2.9	/
OC(CCl)CN1CCN(c2cccc(C(F)(F)F)c2)CC1 (stereo unspecified)	/	-0.049
O=C(NC(C(=O)c1ccccc1)n1cnccc1=O)c1ccccc1 (stereo unspecified)	0.3	/
Cc1occc1C(=O)N=Nc1cc(C(C)(C)C)c(O)c(C(C)(C)C)c1	2.3	-0.174
CC(C)N1C(=O)CN(NC(=O)c2cc3c(s2)CCCC3)C1=O	-3.5	1.83
Clc1ccc(-c2csc(-c3ccno3)n2)cc1Cl	-2.4	1.32
O=C(O)/C=C/c1ccc(OCc2cn3ccccc3n2)cc1	4.0	/
O=S1(=O)N=C2CCCCCN2C(c2ccccc2OCc2ccccc2)N1 (stereo unspecified)	0.0	/
